Screening data deposited in PubChem by several laboratories.
Env fusion inh = HIV envelope-mediated fusion inhibition; 360,000 tested, 1.1% active; inhibition, % at 12.3 µM; HeLa-JRFL Env/CEM21 cell fusion, luciferase; AID 651610;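 active = mean replicate inhibition score of at least 50 and every replicate individually at or above 50; inconclusive = only one of the two criteria met; inactive = mean below 50 and not all replicates reaching 50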;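 also: 0% = plate neutral controls and 100% = maraviroc near 300 nM; one replicate is shown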
Yeast UUG start = alters start codon recognition fidelity in yeast; activity score, % at 18.7 µM; S. cerevisiae UUG-firefly luciferase reporter, luminescence/redox ratio; 350,000 tested, 0.13% active; AID 602363;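 active = replicate mean at a twofold rise or more, about +100% in these data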;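 also: firefly luciferase made from a UUG start codon reports start codon fidelity; reporter light over untreated wells divided by growth signal over untreated wells; some hits fall short of that in this replicate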
CSC inhib = cancer stem cell inhibition; AID 2717; inhibition, % at 7.5 µM; cancer stem cell-like cells viability, luminescence; 300,000 tested, 1.1% active;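 active = mean at 75% or more and at least half the replicates too; inconclusive = mean and replicates disagree; tested in HMLE shEcad cells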;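 also: 0% = median of negative and 100% = median of positive control wells; the first replicate is given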
MT1-MMP act inh = blocks activation of human MT1-MMP; HT1080 RFP-PRO-GFP cells, GFP/RFP ratio fluorescence, overnight; percent of plate control window, DMSO zero; AID 651647; GFP/RFP ratio change, % at 20 µM; 360,000 tested, 0.061% active;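 active = GFP/RFP ratio change of at least 30% with cell ATP level not reduced by more than half and red fluorescence within 50% of control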; also: strong numbers were not always called active
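system = RFP-PRO-GFP reporter HT1080 cells | dosing = 20 µM single dose, 1% DMSO | timing = overnight cell settling, then overnight compound exposure, 37 °C, 5% CO2 | read-out basis = GFP/RFP fluorescence ratio | controls = DMSO and RFP-L50D-GFP cell wells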
PABP FP inh = blocks human PABP binding to poly(A) RNA. AID 2014. inhibition, % at 35 µM. fluorescence polarization. 290,000 tested, 1% active;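 active = 50% or more with normal probe brightness, or confirmed in later tests; inconclusive = above 50% with abnormal brightness, or retests that disagree; inactive = below 50% or failed in later tests; about a fifth of its hits are not listed in these tables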;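 also: calls also rest on retests at 20 µM and on dose response follow-up; controls were probe without protein and protein plus probe with vehicle; some compounds called inactive have numbers as strong as hits; many hits fall short of the cut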
eIF4H inh = inhibitors of RNA binding by human eIF4H | eIF4H fluorescence polarization binding assay | 290,000 tested, 0.94% active | AID 2012 | inhibition, % at 35 µM | Q15056;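 active = 50% or more with normal probe brightness, or confirmed in later tests; inconclusive = above 50% with abnormal brightness, or retests that disagree; inactive = below 50% or failed in later tests; about a fifth of its hits are not listed in these tables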;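 also: calls also rest on retests at 20 µM and on dose response follow-up; 0% = protein and probe with vehicle and 100% = probe without protein; strong numbers were not always called active; many hits fall short of the cut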
Rce1 inh = blocks yeast Ras-converting enzyme | Q03530 | AID 2563 | 290,000 tested, 0.27% active | yeast membranes, quenched prenylated peptide cleavage fluorescence | calls only;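 active = fall in fluorescence gain of 50% or more versus controls, with final raw signal at or below 3038400; inconclusive = same 50% fall but final raw signal above 3038400; inactive = fall in fluorescence gain under 50%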;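 also: plate controls were neutral control wells for no effect and wells lacking membranes for full effect; tested at 10 µM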
Target sequence (Q03530 whole entry, looked up): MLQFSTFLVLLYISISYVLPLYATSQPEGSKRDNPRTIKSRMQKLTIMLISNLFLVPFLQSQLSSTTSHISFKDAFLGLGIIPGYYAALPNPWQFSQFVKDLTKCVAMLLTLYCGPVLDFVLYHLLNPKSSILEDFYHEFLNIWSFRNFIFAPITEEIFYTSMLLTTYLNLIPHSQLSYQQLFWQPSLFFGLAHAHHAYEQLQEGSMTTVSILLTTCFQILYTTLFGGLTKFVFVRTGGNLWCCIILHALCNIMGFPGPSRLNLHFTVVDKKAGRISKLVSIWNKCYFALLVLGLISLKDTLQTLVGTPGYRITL
eIF4H inh retest = also measured in eIF4H inh; calls as there; inhibition, %; compound at 20 µM; confirmation average;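 mean of two retest wells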
PABP FP inh retest = further read-out of PABP FP inh, marked with its call; inhibition, %; compound at 20 µM; confirmation repeats;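 mean of two retest wells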
MT1-MMP act inh RFP = second read-out of MT1-MMP act inh, no call of its own (marks repeat the call); RFP signal change, %; measured here: RFP expression control read;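 0 = vehicle wells; hits needed this value within 50% of zero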
* hit, by the source's call; i = inactive; ? = inconclusive; / = no result given; & = joins results of further samples.

The opening 2 records, to show the layout:
SMILES	Env fusion inh	Yeast UUG start	CSC inhib	MT1-MMP act inh	MT1-MMP act inh RFP	PABP FP inh	eIF4H inh	Rce1 inh	others
Cc1ccc(-c2c(C#N)c(N)nc3c2CCCCC3)cc1	/	-15	-6	2	0	-13	-5	i
COc1ccc(CNS(=O)(=O)c2ccc3c(c2)C(C)(C)C(=O)N3C)cc1	3	-9	-2	2	2	-13	-6	i

Main list, repeating the preview:
SMILES	Env fusion inh	Yeast UUG start	CSC inhib	MT1-MMP act inh	MT1-MMP act inh RFP	PABP FP inh	eIF4H inh	Rce1 inh	others
Cc1ccc(-c2c(C#N)c(N)nc3c2CCCCC3)cc1	/	-15	-6	2	0	-13	-5	i
COc1ccc(CNS(=O)(=O)c2ccc3c(c2)C(C)(C)C(=O)N3C)cc1	3	-9	-2	2	2	-13	-6	i
O=CNc1ccc(OC(=O)c2cncc(Br)c2)cc1	9	3	-5	-3	0	1	1	i
Cc1ccc2c(CN3C(=O)NC(C)(c4ccc5c(c4)OCO5)C3=O)cc(=O)oc2c1 (stereo unspecified)	-6	-6	-3	5	-1	-2	-5	i
COc1ccc(-c2noc(CCC(=O)NCC3CCN(Cc4cccc(C)c4)CC3)n2)cc1	/	-20	-3	/	/	4	1	i
CC(C)(C)c1ccc(C(CC(=O)O)NC(=O)Cc2ccccc2)cc1 (stereo unspecified)	24	-3	-17	0	1	5	2	i
CC(=O)c1cccc(NS(=O)(=O)c2ccc(NC(=O)N3CCCCC3)cc2)c1	27	-10	4	7	-28	3	0	i
COc1ccc2cc(CN(CC3CCCO3)C(=O)Nc3ccccc3OC)c(=O)[nH]c2c1 (stereo unspecified)	-132	/	47	-6	-13	0	-1	i
Cc1cc(C(=O)OCC(=O)c2ccccc2)c2ccccc2n1	6	-10	/	0	-2	-5	1	i
CCCCn1c(N)c(N(CC(C)C)C(=O)c2cc(-c3ccco3)nc3ccccc23)c(=O)[nH]c1=O	-39	/	-8	1	6	/	/	i
COc1ccc(C(=O)N2CCN(c3nc4cc(C)cc(C)c4cc3C#N)CC2)cc1	-75	-7	/	-2	0	/	/	/
Cc1ccc(S(=O)(=O)NCC(=O)OCC(=O)N2C(C)CCCC2C)cc1 (stereo unspecified)	-17	-1	-11	2	-3	/	/	/
COCCCNC(=O)Cn1cc(C(=O)C2CC2)c2ccccc21	-32	-5	-6	-3	2	1	-4	i
CCOC(=O)c1c(NC(=O)CN2CCC(C)CC2)sc(C)c1C	26	-6	52	-7	-10	-5	-4	i
O=C(CSc1nnnn1-c1ccc(Cl)c(C(=O)O)c1)NC(c1ccccc1)c1ccccc1	-13	/	-14	-2	2	1	-8	i
CC(C)c1ccc(NC(=O)CSc2n[nH]c(=O)n2C2CC2)cc1	10	-17	14	4	-2	-10	-10	i
O=c1cc(Cl)[nH]c(=O)n1CCNc1ncc(C(F)(F)F)cc1Cl	/	/	13	-21	-4	9	?	i
C[C@H](CO)N1C[C@H](C)[C@@H](CN(C)C(=O)c2cccc(F)c2)Oc2cc(-c3cncnc3)ccc2S1(=O)=O	-28	12&11&-3	/	-1	2	/	/	/
O=C(c1cnn2c(C(F)(F)F)cc(-c3ccc(Br)cc3)nc12)N1CCOCC1	/	/	/	3	-2	-2	3	i
CC1(Cc2ccccc2C#N)C(=O)Nc2ccc(OC(F)(F)F)cc21 (stereo unspecified)	0	-14	/	-1	-6	/	/	/
O=C(Nc1ccc(Cl)cc1)c1ccco1	-28	-11	-4	1	2	0	-10	i
Cc1ccc(/C=c2\sc3nc(-c4cccs4)nn3c2=O)o1	-91	/	-1	-7	4	6.8*	79*	i	eIF4H inh retest=91*;PABP FP inh retest=96*
Cn1cccc1C(=O)OCC(=O)NC(=O)NC1CCCCC1	-8	/	-1	0	2	?	2	i
Cc1cc(=O)n2[nH]c(C)c(-c3ccccc3)c2n1	/	/	-14	2	9	3	3	i
Cc1ccc(C)c(Nc2nc3ccc(C)cc3n3cnnc23)c1	-7	-10	-4	0	5	-2	2	i

Of the compounds above, 3 have a Cl atom.
SMILES	Env fusion inh	Yeast UUG start	CSC inhib	MT1-MMP act inh	MT1-MMP act inh RFP	PABP FP inh	eIF4H inh	Rce1 inh	others
O=C(CSc1nnnn1-c1ccc(Cl)c(C(=O)O)c1)NC(c1ccccc1)c1ccccc1	-13	/	-14	-2	2	1	-8	i
O=c1cc(Cl)[nH]c(=O)n1CCNc1ncc(C(F)(F)F)cc1Cl	/	/	13	-21	-4	9	?	i
O=C(Nc1ccc(Cl)cc1)c1ccco1	-28	-11	-4	1	2	0	-10	i

(listing goes on)
SMILES	Env fusion inh	Yeast UUG start	CSC inhib	MT1-MMP act inh	MT1-MMP act inh RFP	PABP FP inh	eIF4H inh	Rce1 inh	others
N#CCC(=O)Nc1ccc(C(=O)OCC(=O)c2ccc3c(c2)OCCO3)cc1	2	-45	22	-1	2	11	27	i
O=C(NCc1ccco1)C1CCN(c2ccc(S(=O)(=O)N3CCOCC3)cc2[N+](=O)[O-])CC1	-14	9	-19	4	-7	-6	-11	i
Cc1ccc(N(C)S(=O)(=O)c2cccc(C(=O)NCCCN3CCCC3=O)c2)cc1	/	2	12	3	0	/	/	/
CCN(CC)C(=O)CSCc1cnn(-c2ccccc2)c1-n1cccc1	26	-4	5	-2	-9	-11	6	i
O=C(c1ccco1)N(Cc1cccc(F)c1)C1CCS(=O)(=O)C1 (stereo unspecified)	5	-8	/	-4	0	1	-14	i
CC(=O)Nc1cccc(Nc2nc(-c3ccccc3F)nc3ccccc23)c1	40	-5	-5	4	1	-9	-5	i
CC(=O)c1ccc(OCC(O)CN(C)Cc2cccs2)cc1 (stereo unspecified)	-67	-8	16	1	2	4	1	i
Cc1ccc(NC(NC(=O)c2cccs2)C(Cl)(Cl)Cl)cc1C (stereo unspecified)	/	-7	10	-1	-8	-10	-7	i
CCCC(=O)Nc1ccc(C)c(O)c1	/	-18	2	-3	-1	-10	3	i
CN1CCN(C(=O)CCN2C(=O)/C(=C/c3ccc(F)cc3)SC2=S)CC1	-20	-18	65	3	4	6	0	i
COc1cc(N/N=C/c2ccccc2O)ncn1	-386	-34	23	3	-1	0	2	i
CC(=O)Nc1ccc(NC(=O)CC(C)n2ccnc2)cc1 (stereo unspecified)	-8	-27	/	1	0	4	-6	i
COc1cccc(NC(=O)CN(C)C(=O)CN2C(=O)c3ccc([N+](=O)[O-])cc3C2=O)c1	/	24	-9	0	1	/	/	i
Cc1cc(C)c(NC(=O)CN(C)C(=O)CCC(=O)c2ccc(C)s2)c(C)c1	-7	-29	/	1	2	/	/	/
C=CCN(C)CC/C=C1\c2ccccc2CSc2ccccc21	18	7	38	-10	-3	-8	6	i
Cc1c(Cc2ccccc2)c(=O)oc2cc(OC(C)C(=O)NCC3CCC(C(=O)O)CC3)c(Cl)cc12 (stereo unspecified)	/	-1	-9	10	-5	1	2	i
COc1ccc(-n2c(-c3ccc(Cl)cc3)c[nH]c2=S)cc1	0	-20	-12	1	-1	0	-7	i
CN(CCCNC(=O)CCC(=O)N1CCOc2ccc(Cl)cc21)Cc1ccccc1	8	-9	3	0	0	-1	-5	i
CCCCCCn1c(CN2CCN(C)CC2)nc2c1c(=O)n(C)c(=O)n2C	0	-3	17	-9	-3	10	3	i
CCCCn1c(N)c(N(CCOC)C(=O)c2ccc3c(c2)C(=O)N(c2ccccc2C)C3=O)c(=O)[nH]c1=O	-29	-2	-3	2	-3	/	/	i
COc1cc(C(=O)O/N=C2\CCCc3c2ccc(OC)c3[N+](=O)[O-])cc(OC)c1OC	/	6	9	2	3	-5	-6	i
CN(Cc1nc2c(s1)CCCC2)C(=O)CCc1nnc(-c2ccccc2)o1	2	/	5	1	5	-3	-8	i
CCc1nc(NC(C)C)c2oc3ccccc3c2n1	/	-8	-13	13	5	19	12	i
Nc1nonc1-n1nnc(C(=O)N/N=C\c2ccncc2)c1CN1CCCCC1	-50	-9	-9	-22	-8	14	1	i
Cc1cc(-c2ccc(Cl)s2)n[nH]1	/	0	-1	14	-1	-9	-1	i

Quoted at random: 2 records from the list, in no set order.
SMILES	Env fusion inh	Yeast UUG start	CSC inhib	MT1-MMP act inh	MT1-MMP act inh RFP	PABP FP inh	eIF4H inh	Rce1 inh	others
CCOC(=O)c1c(NC(=O)CN2CCC(C)CC2)sc(C)c1C	26	-6	52	-7	-10	-5	-4	i
Cc1ccc(-c2c(C#N)c(N)nc3c2CCCCC3)cc1	/	-15	-6	2	0	-13	-5	i

Compounds listed so far with a nitro group on carbon, in the order listed:
SMILES	Env fusion inh	Yeast UUG start	CSC inhib	MT1-MMP act inh	MT1-MMP act inh RFP	PABP FP inh	eIF4H inh	Rce1 inh	others
O=C(NCc1ccco1)C1CCN(c2ccc(S(=O)(=O)N3CCOCC3)cc2[N+](=O)[O-])CC1	-14	9	-19	4	-7	-6	-11	i
COc1cccc(NC(=O)CN(C)C(=O)CN2C(=O)c3ccc([N+](=O)[O-])cc3C2=O)c1	/	24	-9	0	1	/	/	i
COc1cc(C(=O)O/N=C2\CCCc3c2ccc(OC)c3[N+](=O)[O-])cc(OC)c1OC	/	6	9	2	3	-5	-6	i

Further compounds follow.
SMILES	Env fusion inh	Yeast UUG start	CSC inhib	MT1-MMP act inh	MT1-MMP act inh RFP	PABP FP inh	eIF4H inh	Rce1 inh	others
O=C(C1CCN(S(=O)(=O)c2cccc3cccnc23)CC1)N1CCn2c1nc1ccccc12	-13	-8	0	1	0	8	7	i
CN(Cc1cccc(F)c1)C(=O)c1ccc(S(=O)(=O)N2CCOCC2)cc1	2	-14	-6	3	3	/	/	/
Cc1ccc(-c2nc3cnccn3c2Nc2c(C)cccc2C)o1	-38	-23	-1	-11	2	15	10	i
CCOC(=O)C1=C(C)Nc2ccccc2N/C1=N\S(=O)(=O)c1ccccc1	3	-15	/	25	-4	/	/	/
O=C(N/N=C1\CC(c2ccccc2)Oc2ccccc21)c1ccccn1 (stereo unspecified)	-8	/	-6	10	0	-1	-3	i
N#Cc1ccc2c(c1)NC(=O)C1CCCN21 (stereo unspecified)	-14	4	/	2	1	-10	-3	i
C[C@@H](NC(=O)c1nc[nH]c1C(=O)N(C)Cc1ccccc1)c1ccccc1	-12	-6	-9	2	-4	/	/	/
CCCNC(=O)C(Cc1ccccc1)NC(=O)c1ccc(C(F)(F)F)cc1 (stereo unspecified)	-33	-11	-20	6	1	/	/	/
COc1ccc(C2C(C(=O)NCc3ccco3)c3ccccc3C(=O)N2C)cc1 (stereo unspecified)	-10	/	19	-2	1	-4	3	i
O=C(CNC(=O)c1ccc(OC(F)F)cc1)NC1CCCc2ccccc21 (stereo unspecified)	17	-10	25	1	0	3	-4	i
CCC(=O)c1ccc(N2CCN(C(=O)c3ccccc3Br)CC2)c(F)c1	6	-18	-8	1	1	-10	-12	i
Cc1cc(C)c(C)c(S(=O)(=O)N2CCN(CC(=O)NC(=O)NCc3ccccc3)CC2)c1C	/	4	7	-10	-8	-4	-9	i
CCc1ccc(-c2cc(C(F)(F)F)n3nc(C(=O)Nc4c(C)nn(Cc5ccccc5Cl)c4C)cc3n2)s1	10	-15	/	2	-10	-7	-11	i
CC1(C)CC(=O)C(C=Nc2ccccc2C(=O)O)=C(O)C1	/	-11	-5	-3	-5	11	-1	i
